# GALR2 agonist: GALR2 receptor agonists, primary screen, cell-based. GALR2-expressing cells, agonist activation read-out. AID 803, 2007. activation, %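 (tested at 5 µM)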. 140,000 compounds, 0.48% hits;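 active = above mean plus 3 SD of all compounds, about 5% in these data, not always enough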;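 also: 0% = vehicle buffer wells and 100% = reference agonist at full effect; tested in CHO reporter cells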
# Target sequence (O43603 whole entry, looked up): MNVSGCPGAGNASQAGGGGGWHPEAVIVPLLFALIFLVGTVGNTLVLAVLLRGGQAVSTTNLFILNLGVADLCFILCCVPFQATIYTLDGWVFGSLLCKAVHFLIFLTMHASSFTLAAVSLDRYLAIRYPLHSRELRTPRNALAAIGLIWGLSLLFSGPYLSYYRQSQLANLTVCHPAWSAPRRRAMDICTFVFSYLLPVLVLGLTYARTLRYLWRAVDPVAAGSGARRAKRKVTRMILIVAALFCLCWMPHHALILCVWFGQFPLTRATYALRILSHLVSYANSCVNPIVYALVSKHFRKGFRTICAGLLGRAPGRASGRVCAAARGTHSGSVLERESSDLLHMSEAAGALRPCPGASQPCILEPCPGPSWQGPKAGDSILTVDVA
# HSV replic up: enhancers of HSV replication in host cells, fold increase, host cell viability; HSV replication augmentation in cells; maximum fold increase; 220,000 compounds, 0.005% hits; AID 1956, 2009;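 active = peak rise of 1.5-fold or more in the series; tested in PC3 cells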;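 also: first round at 10 µM; read as green reporter fluorescence; hits show the peak of a series up to 25 µM; 1 = signal of infected wells without compound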
# RGS16-Gao: modulators of RGS16 binding to Galphao, primary screen, biochemical, human proteins, multiplexed bead flow cytometry; Regulator of G-protein signaling 16 (Homo sapiens) + Guanine nucleotide-binding protein …; 220,000 compounds, 0.38% hits; binding response (% of control), % at 10 µM; bead-based flow cytometry RGS16-Galphao binding, fluorescence; actives lie on both sides;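 active = below 25% or above 175%, edge rows of some plates excepted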;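 also: Galphao activated by GDP with aluminum fluoride before binding; 100% = wells without compound and 0% = beads without RGS; some results beyond the cut were filed as inactive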
# Target sequence (O15492 whole entry, looked up): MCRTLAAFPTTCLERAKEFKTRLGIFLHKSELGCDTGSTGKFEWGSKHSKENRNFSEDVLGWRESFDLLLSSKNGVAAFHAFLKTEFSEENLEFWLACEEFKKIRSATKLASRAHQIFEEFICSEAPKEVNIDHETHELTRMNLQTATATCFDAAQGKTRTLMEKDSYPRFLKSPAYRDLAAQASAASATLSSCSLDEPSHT
# Target sequence (P09471 whole entry, looked up): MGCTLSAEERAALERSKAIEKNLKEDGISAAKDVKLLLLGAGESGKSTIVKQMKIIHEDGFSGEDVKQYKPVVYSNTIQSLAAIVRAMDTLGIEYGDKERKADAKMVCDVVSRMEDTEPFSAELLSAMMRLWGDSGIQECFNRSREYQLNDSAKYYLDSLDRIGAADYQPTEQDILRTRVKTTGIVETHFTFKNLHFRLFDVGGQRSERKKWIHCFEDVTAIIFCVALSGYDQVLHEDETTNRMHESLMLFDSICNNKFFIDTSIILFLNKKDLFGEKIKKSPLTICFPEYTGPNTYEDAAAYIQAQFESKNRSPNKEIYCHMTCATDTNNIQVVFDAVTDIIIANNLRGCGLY
# INS promoter inh: inhibitors of insulin promoter-driven GFP, primary screen, imaging, TRM-6 cells (human fetal islet line), eGFP reporter, cell count | reporter expression induced with tamoxifen | inhibition, % at 2 µM | 130,000 compounds, 0.9% hits | AID 1273, 2008;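 active = inhibition above the mean plus 3 SD, with well images judged a real hit on visual review, cut at about 60% in these data, passing the limit was not always enough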
# PKD1 kinase inh: inhibitors of human PKD1 kinase, biochemical, fluorescence polarization | 200,000 compounds, 0.056% hits | PKD1 kinase fluorescence polarization assay | inhibition, %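 (about 10 µM by stock and volumes)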;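 active = inhibition of 50% or more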;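 also: controls were vehicle for no effect and a reference inhibitor for full effect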
# INS promoter inh cell count: recorded beside INS promoter inh, whose call it bears; normalized cell count, %; measured here: cell count, toxicity; reference of the scale not given here;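 cells exposed to compound for 48 h; stained nuclei by imaging scaled within each plate; lower means fewer cells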
# HSV replic up primary fold: second read-out of HSV replic up, no call of its own (marks repeat the call); fold increase; compound at 10 µM; measured here: primary screen fold increase 10 uM; tested in PC3 cells;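 GFP signal in the first replicate; 1 = infected wells without compound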
# The depositor's hits bear a star; i = inactive; x = not tested or not shown.
SMILES,GALR2 agonist,HSV replic up,HSV replic up primary fold,RGS16-Gao,INS promoter inh,INS promoter inh cell count,PKD1 kinase inh
C=CCOc1ccc(/C=C/C(C)=N\O)cc1,0.1,i,0.9,103,-9,93,-6
CCOC(=O)C1C(=O)N(C(=O)c2cncc(Br)c2)CC1c1ccccc1 (stereo unspecified),-1.7,i,1,102,x,x,0
Cc1nc2ccccc2n1Cc1n[nH]c(=S)n1-c1ccc(Cl)cc1,-3.8,i,1,100,7,151,-12
Cc1cc(C(=O)Nc2ccccc2C#N)n(-c2ccccc2)n1,-1.9,i,1,101,x,x,6
COc1ccc(C(=O)Nc2nc3ccccc3[nH]2)cc1S(=O)(=O)N1CCOCC1,x,i,0.83,103,x,x,-3
Clc1ccc(CN(Cc2ccc(Cl)cc2)c2nn[nH]n2)cc1,x,i,1,107,-18,121,-1
O=S(=O)(O)c1nnc2sc3ccccc3n12,0.4,i,0.98,104,x,x,2
COc1ccc(NC(=O)COC(=O)c2ccncc2)c(OC)c1,x,i,0.87,98,x,x,-4
Cc1sc2nc(COC(=O)c3c(F)cccc3F)[nH]c(=O)c2c1C,x,i,0.98,103,x,x,-4
O=C1c2cccc3cccc(c23)C(=O)N1OS(=O)(=O)c1ccc(Cl)cc1,0.1,i,0.96,99,x,x,5
CC(C)CN(C(=O)CSc1nnc2c(Cl)cc(C(F)(F)F)cn12)C1CCS(=O)(=O)C1 (stereo unspecified),-1.4,i,1.1,98,x,x,6
Nc1nnc(CSCc2ccccc2)s1,-2.7,i,0.98,128,-35,149,-14

# Individual results from the entries so far.
# Cc1sc2nc(COC(=O)c3c(F)cccc3F)[nH]c(=O)c2c1C – RGS16-Gao: 103
# CCOC(=O)C1C(=O)N(C(=O)c2cncc(Br)c2)CC1c1ccccc1 (stereo unspecified) – HSV replic up primary fold: 1
# O=C1c2cccc3cccc(c23)C(=O)N1OS(=O)(=O)c1ccc(Cl)cc1 – PKD1 kinase inh: 5
# CC(C)CN(C(=O)CSc1nnc2c(Cl)cc(C(F)(F)F)cn12)C1CCS(=O)(=O)C1 (stereo unspecified) – GALR2 agonist: -1.4

# Next compounds
SMILES,GALR2 agonist,HSV replic up,HSV replic up primary fold,RGS16-Gao,INS promoter inh,INS promoter inh cell count,PKD1 kinase inh
NS(=O)(=O)c1cc2c(cc1Cl)NC(C(Cl)Cl)NS2(=O)=O (stereo unspecified),-0.3,i,0.87,106,18,112,-9
O=C(/C=C/c1ccccc1)CC(O)(c1ccccc1)C(F)(F)C(F)F (stereo unspecified),-1.7,i,0.7,95,31,68,-2
O=C1/C(=C/c2ccco2)CCC1C1CCCC1 (stereo unspecified),x,i,1.1,94,7,115,2
O=C(N/N=C/c1cccs1)c1cccc(NC(=O)c2ccccc2Cl)c1,0.3,i,0.78,105,-13,106,-12
S=C(Nc1ccccc1)N1CCCN1c1ccccc1,x,i,0.99,96,x,x,x
C/C(=N\NC(=O)c1ccccc1Br)c1ccc(N2CCOCC2)cc1,x,i,0.93,104,x,x,-6
CCC(C)NC(=O)CN(c1ccc(OC)cc1)S(=O)(=O)c1ccccc1 (stereo unspecified),x,i,0.95,62,-41,44,3
Cc1nc(NCCN2CCOCC2)c2oc3ccccc3c2n1,-0.6,i,0.96,99,57,160,1
O=C(Nc1ccc(Cl)cc1)Nc1nnc(CSCc2ccc(Cl)cc2)s1,-0.7,i,0.74,101,x,x,1
Cc1ccc(-n2nc3cc(Cl)c(NC(=O)c4ccco4)cc3n2)cc1,-1.1,i,0.87,98,42,48,11
COc1cc(/C=N/NC(=O)CNC(=O)c2ccco2)ccc1O,x,i,1,94,x,x,-8
Cc1cccc(OCCc2nnc(N)s2)c1C,-0.3,i,0.81,95,x,x,11
O=C(CSc1nnc(-c2cccnc2)s1)Nc1ccnc2ccccc12,0.1,i,1.1,103,x,x,6
Cc1cc(C)n(CC(O)Cn2c3ccc(Cl)cc3c3cc(Cl)ccc32)c(=O)n1 (stereo unspecified),-2.2,i,0.78,104,-17,155,-1
CC(C)C(=O)O/N=C(\N)c1ccccn1,-0.9,i,1,68,0,70,2
CCn1ncc(Cl)c1C(=O)Nc1cc([N+](=O)[O-])ccc1OC,-0.7,i,0.9,96,-42,121,0
O=S(=O)(c1ccccc1)N1CCC(=NO)CC1,x,i,0.96,98,x,x,2
CC1(C)CC(=O)C2=C(C1)NC1=C(C(=O)c3ccccc31)C2c1ccccc1 (stereo unspecified),0.7,i,0.82,169,-17,78,-1
O/N=C1\CCCC\C1=C/c1ccccc1,-1.7,i,1,111,8,87,-6
CCOc1ccc(OCc2cccc(C(=O)O)c2)cc1,x,i,0.9,104,x,x,x
O=C(NCCN1CCCCC1)c1ccc(Oc2cc(Cl)cc(Cl)c2)o1,x,i,0.88,105,x,x,x
CN(C)Cc1c(O)ccc2occ(C(O)c3ccccc3)c12 (stereo unspecified),-3.2,i,0.73,137,x,x,-7
O=C(OCc1nnc(-c2ccccc2)o1)C12CC3CC(CC(Br)(C3)C1)C2,x,i,0.98,49,0,97,-2
O=c1c(-c2ccccc2)c(O)c2cccc3c2n1CCC3,-2.1,i,1.1,100,15,102,-8

# The list goes on; the last six above are carried over.
SMILES,GALR2 agonist,HSV replic up,HSV replic up primary fold,RGS16-Gao,INS promoter inh,INS promoter inh cell count,PKD1 kinase inh
O/N=C1\CCCC\C1=C/c1ccccc1,-1.7,i,1,111,8,87,-6
CCOc1ccc(OCc2cccc(C(=O)O)c2)cc1,x,i,0.9,104,x,x,x
O=C(NCCN1CCCCC1)c1ccc(Oc2cc(Cl)cc(Cl)c2)o1,x,i,0.88,105,x,x,x
CN(C)Cc1c(O)ccc2occ(C(O)c3ccccc3)c12 (stereo unspecified),-3.2,i,0.73,137,x,x,-7
O=C(OCc1nnc(-c2ccccc2)o1)C12CC3CC(CC(Br)(C3)C1)C2,x,i,0.98,49,0,97,-2
O=c1c(-c2ccccc2)c(O)c2cccc3c2n1CCC3,-2.1,i,1.1,100,15,102,-8
O=C(C1CCCO1)N1CCN(C(=S)Nc2ccccc2Cl)CC1 (stereo unspecified),-2.0,i,0.97,167,10,58,-10
COC(=O)C1=C(C)Nc2ncnn2C1c1ccc(OC(=O)c2ccccc2)cc1 (stereo unspecified),0.5,i,0.94,100,-33,35,3
COc1ccc(CNS(=O)(=O)c2ccc(F)c(C(=O)Nc3ccccc3OC)c2)cc1,x,i,0.95,100,-3,93,-12
Cc1nc2ncnn2c(C)c1CCC(=O)N1CCOCC1,1.0,i,0.91,85,x,x,-5
C=CCC(NCCCO)c1cccc(OC)c1OC (stereo unspecified),-3.1,i,0.82,105,23,107,9
O=C(O)CCC(=O)c1ccc2c(c1)CCCC2,x,i,1.1,102,-18,115,-8
C=CCc1ccccc1OCC(=O)N/N=C/c1ccc(OC(C)=O)cc1OC(C)=O,-1.1,i,0.58,104,x,x,8
O=C(Nc1ccc2nn(-c3ccccc3)nc2c1)c1ccco1,1.5,i,1,102,-77,50,3
NC(=S)N/N=C1/CCSc2ccc3ccccc3c21,x,i,0.84,111,x,x,-2
CN(C)c1ccc(C(=O)N/N=C/c2cc(Br)cc(Br)c2O)cc1,x,i,0.86,98,x,x,x
COCc1cc(Sc2ccc(Cl)cc2)nc(-c2ccccc2)n1,-1.5,i,1,103,7,103,-5
O=C1NC(NS(=O)(=O)c2ccc(Cl)cc2)(C(F)(F)F)C(=O)N1CCc1ccccc1 (stereo unspecified),x,i,0.99,96,x,x,x
CCCn1nnnc1SCC(=O)c1ccc(NC(C)=O)cc1,0.1,i,1,93,x,x,8
c1ccc(Nc2ccc(-n3ccnc3)nn2)cc1,x,i,1,102,35,136,4
CN(C)CCCNCCCCNC(=O)/C=N/O,-2.0,x,x,107,x,x,-7
CCOC(=O)Cc1csc(NC(=O)Nc2ccc(OC(F)(F)F)cc2)n1,x,i,1.1,98,x,x,x
COc1ccc(N2C(=O)C3CCCN3C2c2ccc(C)o2)cc1Cl (stereo unspecified),-1.4,i,0.96,100,x,x,-4
Cc1cc(C)c(C)c(S(=O)(=O)N2CCN(C(=O)c3cc(=O)[nH]c4ccccc34)CC2)c1C,-0.3,i,0.96,98,21,108,7
COc1ccc(OCCc2nnc(N)s2)cc1,-3.4,i,0.8,109,-60,204,-9
CN(C)c1ccc(NS(=O)(=O)c2ccc(-c3csnn3)cc2)cc1,x,i,1,101,x,x,x
CN(CC(=O)NCc1ccccn1)S(=O)(=O)c1ccc(F)cc1,x,i,1,93,x,x,-9
COP1(=O)C[C@@H](O)[C@@H](O)[C@@H](COCc2ccccc2)O1 (stereo partly specified),x,i,0.96,103,x,x,x
O=C(N[C@@H](c1ccccc1)[C@@H]1C[C@H]1C(=O)O)OCc1ccccc1,-1.6,i,1.1,49,19,94,1
CN1/C(=C\P(=O)(N(C)C)N(C)C)C(C)(C)c2ccccc21,0.2,i,0.79,94,x,x,8
CCC(=O)Nc1nc2c(s1)COc1ccccc1-2,-2.1,i,0.88,98,x,x,-1
O=C(O)c1ccccc1SCc1ccc2c(c1)OCO2,-3.3,i,1,102,14,102,-10
O=C(NCc1ccccc1)c1cnc(-c2ccccn2)nc1C(F)(F)F,-0.7,i,0.83,104,9,93,-4
O=C(O)C1C2C=CC(O2)C1C(=O)Nc1ccc2c(c1)OCCO2 (stereo unspecified),-1.1,i,1,100,9,102,-2
CC(=O)NC(Cc1cc(C)ccc1C)C(=O)N1CCN(C(=O)c2ccccc2Br)CC1 (stereo unspecified),x,i,1,104,x,x,-3
COC(=O)c1ccc(C2=NOC(C)(c3sc(-c4ccccc4)nc3C)C2)cc1 (stereo unspecified),x,i,0.96,93,x,x,x
Cc1onc(-c2ccc(Cl)cc2)c1-c1ccnc(SCC(=O)Nc2ccc(C(C)C)cc2)n1,x,i,0.97,105,x,x,x
CC(C)C(=O)N(Nc1nc2ccccc2s1)C(=O)C(C)C,-1.3,i,0.98,103,-2,130,-3
CCN(CC)CC(C)(C)COC(=O)c1oc2ccccc2c1C,x,i,1.2,101,x,x,x
Cc1ccc(S(=O)(=O)CCC(=O)Nc2nc3c(s2)CCCC3)cc1,-3.1,i,0.91,96,50,172,-13
Cc1cc(C)c(S(=O)(=O)N2CCOC2CNC(=O)C(=O)NCCCn2ccnc2)c(C)c1 (stereo unspecified),x,i,1.1,101,x,x,x
O=C(CN1CCN(c2ccccc2)CC1)Nc1c(C(=O)C2CC2)oc2ccccc12,-0.2,i,0.93,102,50,116,0
CCCn1c2ccccc2c2nnc(SC(CC)C(=O)Nc3cc(C)on3)nc21 (stereo unspecified),0.5,i,0.95,107,-44,93,-3
Cc1nn(Cc2ccc(Cl)cc2)c(C)c1NC(=O)CCCn1nc(C)c([N+](=O)[O-])c1C,1.0,i,0.92,103,-44,123,1
Cc1ccc(C)c(S(=O)(=O)N2CC(=O)Nc3ccccc32)c1,-0.2,i,0.8,100,-23,214,-6
Cc1c(Nc2ncnc3c2cnn3-c2ccccc2)c(=O)n(-c2ccccc2)n1C,-2.8,i,0.84,100,10,75,-1
CCOc1nc(-c2ccc(OC)cc2)ccc1-c1noc(C)n1,-0.1,i,0.93,91,x,x,2
CC1(C)Oc2cc(N)c([N+](=O)[O-])cc2O1,-3.0,i,0.92,104,-70,124,-9
CC(C)S(=O)(=O)c1ccc(C(=O)Nc2ccc(F)cc2F)cn1,x,i,0.9,98,x,x,3
Cc1cc(C)c2nc(-c3ccccn3)cc(C(=O)n3cccn3)c2c1,x,i,1,101,x,x,4
O=S(=O)(Nc1n[nH]c(C(F)(F)F)n1)c1ccccc1,x,i,1,99,x,x,x
Cc1cc(NC(=O)c2ccccc2Cl)c(C(C)C)cc1O,-1.6,i,1.1,96,-14,140,-3
Fc1ccccc1C1c2[nH]c3ccccc3c2CCN1Cc1cccn1-c1ncccn1 (stereo unspecified),x,i,0.97,94,x,x,0
O=C(N/N=C1/CCSC1)c1cc(Br)ccc1O,x,i,1,99,x,x,2
Nc1nc2ccc(C(=O)NC3CCCCC3)cc2s1,-1.8,i,1,94,x,x,-2
O=C(C1CCCN(S(=O)(=O)c2cnc[nH]2)C1)N1CCN(Cc2ccccc2)CC1 (stereo unspecified),-2.2,i,0.94,100,x,x,-6
O=C(Nc1nnc(-c2cccnc2)o1)c1cccc(Cl)c1,x,i,0.81,100,x,x,-4
COc1cccc(C(=O)N(Cc2ccccc2)Cc2cc3cc4c(cc3[nH]c2=O)OCCO4)c1,-3.1,i,0.67,106,60,135,-3
C=CCNC(=S)NNC(=O)c1ccc(C)c(Cl)c1,x,i,1,102,x,x,3
